VACV mCherry inh: vaccinia inhibition (mCherry reporter); AID 720579; Potency, µM (top dose mostly 36.5 µM), for the others: at the highest dose activity change, negative = inhibition, hits mostly inhibitors; hit rate 0.63% among 310,000; Vaccinia virus mCherry reporter infection, fluorescence; about a quarter of the inactives have no number; active = well fitted inhibition curve with a large enough effect; inconclusive = small, poorly fitted or top-dose-only effect; inactive = no such curve, though single readings can be large or run the other way; tested in A549 cells; also: nearly all actives have a fitted effect of over 35% in size; inactives centre near -10
Vaccinia Venus: inhibitors of vaccinia virus (Venus reporter). Vaccinia virus Venus reporter expression, fluorescence. Potency, µM (top dose mostly 36.5 µM), for inactives: at the top dose activity change, negative = inhibition, usual class: inhibitors. hit rate 0.46% among 330,000; active means well fitted inhibition curve with a large enough effect; inconclusive means small, poorly fitted or top-dose-only effect; inactive means no such curve, though single readings can be large or run the other way; tested in A549 cells; also: nearly all actives have a fitted effect of over 30% in size; inactives centre near -10
Starred values were filed as active, the others as inactive; [ ] = another dose, or the depositor's remark. % is scaled to controls: 0 for no effect and ±100 for the full control effect; potency is read from the fitted curve at half-maximal effect. Rows are unselected (roughly 0.82% active in at least one column).

The opening 9 records (preview)
Results for O=C1NC(Cc2ccc(O)cc2)c2nc3ccccc3c(=O)n2-c2ncccc21 (configuration not stated) ?
VACV mCherry inh: -14%; Vaccinia Venus: -10%

Results for CN(C)C(=O)COC(=O)c1ccccc1NC(=O)c1ccco1 ?
VACV mCherry inh: -22%; Vaccinia Venus: -2%

What do the screens show for `Cc1ccccc1CC(=O)N1CCN(C(=O)C2CCCO2)CC1` (configuration not stated)?
VACV mCherry inh: inactive; Vaccinia Venus: -2%

What do the screens show for `COc1ccccc1NC(=O)CCC(=O)OCc1ccc([N+](=O)[O-])cc1`?
VACV mCherry inh: inactive; Vaccinia Venus: -6%

What do the screens show for `O=C(NC(c1ccc(-c2ccccc2)cc1)c1cnccn1)C1CCN(CCOc2ccc(Cl)cc2Cl)CC1` (configuration not stated)?
VACV mCherry inh: 10%; Vaccinia Venus: -18%

How did CC(C)OC(=O)c1cc2ccccc2oc1=O do in these assays?
VACV mCherry inh: -14%; Vaccinia Venus: -7%

What do the screens show for `CN(C(=O)COC(=O)c1ccccc1Nc1ccccc1)C1CCS(=O)(=O)C1` (configuration not stated)?
VACV mCherry inh: inconclusive; Vaccinia Venus: -12%

How did CC(C)c1ccccc1OCC(=O)Nc1cc(S(=O)(=O)N2CCOCC2)ccc1N1CCCC1 do in these assays?
VACV mCherry inh: -25%; Vaccinia Venus: -14%

What do the screens show for `CCOC(=O)CCN(Cc1sccc1C)S(=O)(=O)c1ccc(F)cc1`?
VACV mCherry inh: inactive; Vaccinia Venus: 19%

All compounds of this part, from the first entry:
Results for O=C1NC(Cc2ccc(O)cc2)c2nc3ccccc3c(=O)n2-c2ncccc21 (configuration not stated) ?
VACV mCherry inh: -14%; Vaccinia Venus: -10%

Results for CN(C)C(=O)COC(=O)c1ccccc1NC(=O)c1ccco1 ?
VACV mCherry inh: -22%; Vaccinia Venus: -2%

What do the screens show for `Cc1ccccc1CC(=O)N1CCN(C(=O)C2CCCO2)CC1` (configuration not stated)?
VACV mCherry inh: inactive; Vaccinia Venus: -2%

What do the screens show for `COc1ccccc1NC(=O)CCC(=O)OCc1ccc([N+](=O)[O-])cc1`?
VACV mCherry inh: inactive; Vaccinia Venus: -6%

What do the screens show for `O=C(NC(c1ccc(-c2ccccc2)cc1)c1cnccn1)C1CCN(CCOc2ccc(Cl)cc2Cl)CC1` (configuration not stated)?
VACV mCherry inh: 10%; Vaccinia Venus: -18%

How did CC(C)OC(=O)c1cc2ccccc2oc1=O do in these assays?
VACV mCherry inh: -14%; Vaccinia Venus: -7%

What do the screens show for `CN(C(=O)COC(=O)c1ccccc1Nc1ccccc1)C1CCS(=O)(=O)C1` (configuration not stated)?
VACV mCherry inh: inconclusive; Vaccinia Venus: -12%

How did CC(C)c1ccccc1OCC(=O)Nc1cc(S(=O)(=O)N2CCOCC2)ccc1N1CCCC1 do in these assays?
VACV mCherry inh: -25%; Vaccinia Venus: -14%

What do the screens show for `CCOC(=O)CCN(Cc1sccc1C)S(=O)(=O)c1ccc(F)cc1`?
VACV mCherry inh: inactive; Vaccinia Venus: 19%

Results for CC(C)c1ccc(C(O)c2cnc(C(C)C)n2C)cc1 (configuration not stated) ?
VACV mCherry inh: -13%; Vaccinia Venus: -14%

What do the screens show for `CC1Cc2ccccc2N1C(=O)c1ccc(F)c(S(=O)(=O)N2CCOCC2)c1` (configuration not stated)?
VACV mCherry inh: -22%; Vaccinia Venus: -17%

How did Cc1cc(C)cc(CC(=O)N2CCC2(C)C(=O)NS(=O)(=O)c2ccc(C#N)cc2)c1 (configuration not stated) do in these assays?
VACV mCherry inh: 12%; Vaccinia Venus: -7%

Results for C[C@@H]1CN(S(=O)(=O)C(C)(C)C)[C@@H](CCO)/C1=C\c1ccccc1 ?
VACV mCherry inh: inactive; Vaccinia Venus: 0%

Results for CCn1c(=O)cc(SCC(=O)N2CCN(c3cc(C)ccc3C)CC2)c2ccccc21 ?
VACV mCherry inh: -29%; Vaccinia Venus: -20%

What do the screens show for `Cc1ccc(-c2nn(-c3ccccc3)cc2/C=C/C(=O)OCC(=O)NC2CC2)o1`?
VACV mCherry inh: inconclusive; Vaccinia Venus: -19%

Results for Cc1ccc(C2=NNC(c3ccc(Cl)cc3)=Nc3ccccc32)o1 ?
VACV mCherry inh: -2%; Vaccinia Venus: -12%

Results for Cc1cccc(NS(=O)(=O)c2ccc(C(=O)NCC(C)(C)N3CCOCC3)cc2)c1C ?
VACV mCherry inh: 0%; Vaccinia Venus: -24%

How did COC(=O)C1=C(C)N(Cc2ccc3c(c2)OCO3)C(=O)C1 do in these assays?
VACV mCherry inh: inactive; Vaccinia Venus: -1%

How did Cn1cc(/C=C2\SC(=S)N(NC(=O)c3ccccc3)C2=O)c2ccccc21 do in these assays?
VACV mCherry inh: 0%; Vaccinia Venus: 12%

Results for Cc1onc(-c2ccccc2)c1-c1nnc(-c2ccccc2C(F)(F)F)o1 ?
VACV mCherry inh: inactive; Vaccinia Venus: 7%

What do the screens show for `O=C(Nc1ccc(Cl)cc1)N1CCOCC1`?
VACV mCherry inh: -23%; Vaccinia Venus: -13%

How did COc1cccc(NC(=O)CN(C)C(=O)Cn2c(=O)oc3ccccc32)c1 do in these assays?
VACV mCherry inh: -15%; Vaccinia Venus: -16%

What do the screens show for `COc1ccc(C(=O)NCc2ccc3c(c2)OCO3)cc1`?
VACV mCherry inh: -2%; Vaccinia Venus: 4%

What do the screens show for `COc1ccc([C@H]2CC(=O)C=C(/C=C/c3ccccc3)C2)cc1`?
VACV mCherry inh: -6%; Vaccinia Venus: -5%

What do the screens show for `O=C(C[n+]1cc(Br)cc2ccccc21)c1ccc(O)c(O)c1`?
VACV mCherry inh: -13%; Vaccinia Venus: -11%

How did COc1ccc(S(=O)(=O)N2CCOCC2)cc1NC(=O)c1ccc(-n2nc(C)cc2C)cc1 do in these assays?
VACV mCherry inh: -14%; Vaccinia Venus: -12%

Results for CCN(CC)c1ccc(C(=O)N2CCc3c([nH]c4ccccc34)C2c2ccc(F)cc2)cc1 (configuration not stated) ?
VACV mCherry inh: -3%; Vaccinia Venus: -6%

Results for C[C@@H]1CN([C@H](C)CO)S(=O)(=O)c2ccc(C#CC3CCCCC3)cc2O[C@H]1CN(C)C(=O)Cc1ccncc1 ?
VACV mCherry inh: inactive; Vaccinia Venus: -12%

What do the screens show for `O=C1C2C3C=CC(CC3)C2C(=O)N1/N=C/c1ccco1` (configuration not stated)?
VACV mCherry inh: -15%; Vaccinia Venus: -6%

What do the screens show for `O=C(NCCOc1ccccc1)c1cncc(Br)c1`?
Vaccinia Venus: -17%

How did O=c1c(N2CCOCC2)nsn1Cc1ccccc1 do in these assays?
VACV mCherry inh: 13µM*; Vaccinia Venus: inconclusive

How did O=S(=O)(Nc1cccc2[nH]ncc12)c1cccs1 do in these assays?
VACV mCherry inh: -1%; Vaccinia Venus: -10%

What do the screens show for `Cc1cc(Br)cn2c(Cc3ccccc3)c(-c3ccccc3)nc12`?
VACV mCherry inh: -8%; Vaccinia Venus: 5%

How did CN(CCC#N)C(=S)Nc1ccc(Oc2ccccc2)cc1 do in these assays?
VACV mCherry inh: inactive; Vaccinia Venus: -11%

What do the screens show for `Cc1ccc(/C=C2\C(=N)N3N=C(CC(=O)N4CCCCC4)SC3=NC2=O)cc1`?
VACV mCherry inh: -1%[7.34 µM]; Vaccinia Venus: -1%[7.34 µM]

What do the screens show for `CCCCCC(=O)Nc1ccc(C(=O)COC(=O)CN2C(=O)NC3(CCCC3)C2=O)cc1`?
VACV mCherry inh: inactive; Vaccinia Venus: -20%

What do the screens show for `Cc1ccc(CN/C=C/C(=O)c2ccc(Br)cc2)cc1`?
Vaccinia Venus: -8%

How did COc1cc(/C=N\NC(=O)c2ccc(Cl)cc2)ccc1Oc1ccc([N+](=O)[O-])cn1 do in these assays?
VACV mCherry inh: -21%; Vaccinia Venus: -14%

Results for COCCCNc1nc2nonc2nc1N1C[C@H]2CC[C@H]1C2 ?
VACV mCherry inh: inactive; Vaccinia Venus: -6%

What do the screens show for `CCn1c(/C=C/Nc2ccccc2)[n+](CC)c2ccc(C(=O)OCC(F)(F)F)cc21`?
VACV mCherry inh: -16%; Vaccinia Venus: -3%

How did O=C(Nc1ccc(N2CCCC2)cc1)c1cc(Br)ccc1Cl do in these assays?
VACV mCherry inh: inconclusive; Vaccinia Venus: inconclusive

How did CC(C)Sc1nnc(Nc2ccccc2)s1 do in these assays?
Vaccinia Venus: -21%

What do the screens show for `C/C(=N\NC(=O)CNC(=O)c1ccccc1F)c1ccco1`?
VACV mCherry inh: -3%; Vaccinia Venus: -13%

How did O=C(CC1C=CCC1)Nc1ccccc1 (configuration not stated) do in these assays?
VACV mCherry inh: -11%; Vaccinia Venus: 16%

How did COc1ccc(NC(=O)CNc2ccc(C#N)cc2)cc1 do in these assays?
VACV mCherry inh: inactive; Vaccinia Venus: -19%

What do the screens show for `CCN(CCNC(=O)C1CCN(c2nnc(-n3cccc3)s2)CC1)c1ccccc1`?
VACV mCherry inh: -9%; Vaccinia Venus: -25%

Results for O=[N+]([O-])c1ccc(N2CCN(Cc3ccccc3)CC2)s1 ?
VACV mCherry inh: inactive; Vaccinia Venus: -19%

How did CCOc1ccccc1CNCc1c(C(=O)O)n(Cc2ccc(F)cc2)c2cc(C)ccc12 do in these assays?
VACV mCherry inh: inconclusive; Vaccinia Venus: inconclusive

What do the screens show for `Cc1c(C)n(Cc2ccc(F)cc2)c2ccc(C(=O)N3CCN(c4ccc(F)cc4)CC3)cc12`?
VACV mCherry inh: -2%; Vaccinia Venus: -9%

Results for COc1ccc(NC(=O)CSc2nc(-c3ccccc3)cc(-c3cc(OC)c(OC)c(OC)c3)c2C#N)c(OC)c1 ?
VACV mCherry inh: inactive; Vaccinia Venus: -6%

How did COc1ccc(CNCc2ccc(OC)c3ccccc23)cc1 do in these assays?
VACV mCherry inh: -12%; Vaccinia Venus: -8%

How did CN(CCOc1ccc(Cl)cc1)C(=O)c1ccc(S(=O)(=O)N2CCOCC2)cc1 do in these assays?
VACV mCherry inh: inactive; Vaccinia Venus: -5%

What do the screens show for `CCOc1ccc(OCCOC(=O)C2CCN(S(=O)(=O)c3ccc(C)c(C)c3)CC2)cc1`?
VACV mCherry inh: -23%; Vaccinia Venus: -16%

Results for COc1ccccc1CNC(=O)CCNC(=O)c1ccco1 ?
VACV mCherry inh: -2%; Vaccinia Venus: -10%

What do the screens show for `CN1CCN(CCNC(=O)c2cnn(-c3ccc(F)cc3)c2C2CCN(C(=O)OC(C)(C)C)CC2)CC1`?
VACV mCherry inh: -8%; Vaccinia Venus: -7%

What do the screens show for `COCC(=O)Nc1cc(C(=O)N2CCN(C)C(c3ccccc3)C2)c2c(c1)nc(-c1ccncc1)n2C` (configuration not stated)?
VACV mCherry inh: inactive; Vaccinia Venus: -19%

What do the screens show for `C=CC[C@]12CC=CC(=O)[C@@]1(O)O[C@H](c1ccc(OC)c(OC)c1)[C@H]2C`?
VACV mCherry inh: -22%; Vaccinia Venus: -19%

Results for CC1CC(C)CN(CCCNC(=O)c2ccc(CNS(=O)(=O)c3ccc(F)cc3)cc2)C1 (configuration not stated) ?
VACV mCherry inh: -1%; Vaccinia Venus: -20%

What do the screens show for `O=C(c1cnn(-c2ccc(Cl)cc2)c1)c1ccccc1O`?
VACV mCherry inh: inactive; Vaccinia Venus: -9%

How did O=C(Cn1cnc([N+](=O)[O-])n1)NCc1ccccc1 do in these assays?
Vaccinia Venus: -5%

How did CC(=O)N/C(=C\c1ccccc1)C(=O)NCC(=O)O do in these assays?
VACV mCherry inh: -8%; Vaccinia Venus: 2%

How did CC(C)C(C(=O)O)N1CCS(=O)(=O)CC1 (configuration not stated) do in these assays?
VACV mCherry inh: inactive; Vaccinia Venus: 6%

What do the screens show for `Cc1ccc(C2C=C(c3ccc(Cl)cc3)Nc3nc(NC(=O)CCC(=O)O)nn32)cc1` (configuration not stated)?
VACV mCherry inh: -12%; Vaccinia Venus: -6%

What do the screens show for `Cc1ccc(-c2nc3ccccc3n2C(C)C(=O)NC(C)(C)C)cc1` (configuration not stated)?
VACV mCherry inh: -3%; Vaccinia Venus: 0%

How did COc1ccc(C2=NS(=O)(=O)N(C)C(C(=O)NC3CCCCC3)=C2)cc1OC do in these assays?
VACV mCherry inh: inactive; Vaccinia Venus: -11%

What do the screens show for `Cc1ccc2c(c1)N(CC(=O)NCCCN1CCCC1)C(=O)CO2`?
VACV mCherry inh: inactive; Vaccinia Venus: 0%

How did CCc1ccc([C@@H]2CC=C(C(=O)O)[C@H](c3ccc(F)cc3)N2S(=O)(=O)c2ccc(C)cc2)cc1 do in these assays?
VACV mCherry inh: -7%; Vaccinia Venus: -12%

How did COc1cc(C(=O)NC(=S)NC(C)C)cc(OC)c1OC do in these assays?
VACV mCherry inh: -5%; Vaccinia Venus: -7%

What do the screens show for `CSCCC(c1nnnn1C(C)(C)C)N1CCC(n2c(=O)[nH]c3ccccc32)CC1` (configuration not stated)?
VACV mCherry inh: -5%; Vaccinia Venus: -7%

How did COc1cc2nc(N3CCN(C)CC3)nc(NC(C)C)c2cc1OC do in these assays?
VACV mCherry inh: -7%; Vaccinia Venus: -24%

What do the screens show for `Cn1nnnc1-c1cc(Cl)cc(Cl)c1`?
VACV mCherry inh: -6%; Vaccinia Venus: -11%

How did O=C(NC1CCCCCC1)C1CCC(CNS(=O)(=O)c2cccc3cccnc23)CC1 (configuration not stated) do in these assays?
VACV mCherry inh: -16%; Vaccinia Venus: -8%

Results for COc1cccc(-n2c(Cc3cc(=O)[nH]c(=O)[nH]3)nnc2SCC(=O)N2CCCCCC2)c1 ?
VACV mCherry inh: -4%; Vaccinia Venus: -3%

What do the screens show for `CCOc1ccc(C(=O)N2CCN(CCc3ccccn3)CC2)cc1`?
VACV mCherry inh: -7%; Vaccinia Venus: -8%
